Source: PubChem (Fisher Drug Discovery Resource Center)
NPYLR7 agonist: mosquito NPYLR7 agonism; HEK293T NPYLR7/Galpha15, GCaMP6s calcium fluorescence; activation, % at 10 µM; 270,000 tested, 0.15% active; in the data active = activation above about 40%;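 also: 0% = vehicle and 100% = reference agonist at the receptor; some compounds past the cut are filed as inactive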
NPYLR7 agonist max-min: recorded beside NPYLR7 agonist, whose call it bears; activation, %; measured here: Max-Min RFU normalised activation; some inactives read as strong as hits;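 span of the calcium signal over five minutes; 0% = vehicle and 100% = native peptide agonist; compound fluorescence can raise it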
* = called active by the depositor; & = joins results of further samples.

SMILES	NPYLR7 agonist	NPYLR7 agonist max-min
CCCCNC(=O)N1CCN(c2ccc(OC)cc2)CC1	3	-2
Cc1nnc(CN(C)S(=O)(=O)c2cc(Cl)c(N)c(Cl)c2)n1C	-1	-7
O=C(CCn1nnc(-c2ccccc2)n1)N1CCCn2cncc2C1	4	1
CCc1nc(C)sc1CNC(=O)Cn1nc(C)c2ccccc2c1=O	3	3
O=C(Cc1cccs1)NCCn1ncc2c(N3CCCCC3)ncnc21	0	0
COC(=O)c1ccc(-c2noc(CN(C)C3CCCc4ccccc43)n2)cc1 (centres undefined)	16	9
Cc1ccc(-n2nnc(C(=O)OCc3cccc(F)c3)c2C)cc1C	7	-6
CCC(C)Nc1oc(-c2ccc(COc3ccc(OC)cc3)o2)nc1C#N (centres undefined)	1	7
Fc1ccccc1Oc1ccc2c(-c3ccccc3F)noc2n1	9	7
COc1ccccc1/C=C/C(=O)Nc1nc2ccccc2s1	3	-3
CCN(Cc1cnn(C)c1)C(=O)c1cc2ccccc2s1	-6	-7
CCCn1c(=O)c2c(nc3n(C(C)C)c(C)c(C)n23)n(C)c1=O	-1	13
COc1ccc(Nc2cc(C)nc3c(-c4ccc(OC)c(OC)c4)c(C)nn23)cc1	-6	-7
CC1(C(=O)NS(=O)(=O)c2ccccc2)CCN1C(=O)COc1ccc(Cl)cc1 (centres undefined)	5	3
Cc1ccc(C(=O)N2C(=S)C(c3ccc(C)cc3)=NC2(C)C)cc1	7	-1
O=C1CCC(=O)N1c1ccc(-c2nc3sc4c(c3c(=O)o2)CCC4)cc1	2	2
CSCc1noc(CNC2CCN(CC(C)C)CC2)n1	8	-2
CC(=O)N1CCN(C(=O)Cc2cc(-c3ccc(Cl)cc3)on2)CC1	-2	0
CN(CC(=O)Nc1ccc(Cl)c(C(F)(F)F)c1)C(=O)c1ccc(Cl)c(N2CCCC2=O)c1	4	1
CC(=O)Oc1cccc(C(=O)N2CCC(c3nc(-c4ccc(Cl)cc4)no3)CC2)c1C	-7	-10
O=C(NCCCN1CCOCC1)c1nn2c(C(F)(F)F)cc(-c3ccccc3)nc2c1Br	-8	-13
Cn1nc(C(C)(C)C)cc1C(=O)Nc1ccc2nc(-c3ccoc3)nn2c1	5	-9
CCOCCOc1nc(-c2cccc(F)c2)n(-c2ccc(NC(=O)Cc3ccc(OC)cc3)cc2)n1	25	23
O=C(Nc1cccc(F)c1)c1cnn(-c2ccccc2)c1C1CC1	3	1
Cc1cc(C)c(-c2cc(C(=O)N(CC(=O)O)Cc3ccccc3)no2)c(C)c1	13	5
Remaining list, next part.
SMILES	NPYLR7 agonist	NPYLR7 agonist max-min
NC(=O)CSCc1cc(Cl)c2c(c1)OCCCO2	5	2
NC(=O)c1cccnc1N1CCC2(CCCN(CCc3ccccc3)C2)C1 (centres undefined)	2	2
CCc1nc(N(CCOC)CCC(=O)NCc2ccccc2)c2ccc(Cl)cc2n1	3	11
COc1ccccc1C(=O)Nc1ccc(-c2c(C3CC3)nn(-c3cccc(C)c3)c2OC(C)=O)cc1	5	8
CCCCC(C)=NNC(=O)NC1CCCCC1	4	3
Cc1oc(-c2nc3ccccc3n2C)cc1S(=O)(=O)O	2	1
Clc1ccc(OCCSc2nnc(NC3CC3)s2)cc1	2	3
Cc1c(OCC(F)(F)F)ccnc1CS(=O)c1nc2ccccc2[nH]1 (centres undefined)	-7&13&-2&3	-15&-4&-7&-39
COC(=O)c1cccc(NC(=O)c2cc3ccccc3oc2=O)c1	11	3
Cc1ccc(F)c(S(=O)(=O)NC(=O)C2(C)CCN2C(=O)C2(c3ccccc3)CC2)c1 (centres undefined)	1	-1
CC(C)CN(CCC(=O)NCc1cccc(C(F)(F)F)c1)c1nc(-c2ccc(F)cc2)nc2cc(Cl)ccc12	11	13
CCc1ccc(-c2c(-c3ccccc3)ncn2CCN2CCCC(CO)C2)nc1 (centres undefined)	-3	-5
CN(Cc1nc(C2CC2)no1)C1CCN(C(=O)c2ccncc2)CC1	6	-5
Cc1c(CN2CCSCC2)cccc1NC(=O)c1ccc2ccccc2c1	2	4
O=c1c2ccccc2c2ccccc2c(=O)n1-c1cc([N+](=O)[O-])ccc1F	5	4
CCCC(=O)Nc1cc(Cl)ccc1Sc1ccc(C)cc1C	8	8
CC(C)(C)NC(=O)NC(=O)CSc1nnc(-c2cccs2)o1	13	22
COc1ccc(Oc2cc(N3CCCCC3)ncn2)cc1	9	6
Cc1ccc(N2CCN(C(=O)NC(C)C)C(C)C2=O)cc1Cl (centres undefined)	1	4
O=C(N(Cc1ccccc1)c1ccccn1)C12CC3CC(CC(C3)C1)C2	-8	-14
Cc1cccc(N2CCC(NC(=O)CC(C)n3ccnc3C)CC2)c1 (centres undefined)	0	2
COC(=O)C(NC(=O)CCC1CCCCC1)C12CC3CC(CC(C3)C1)C2 (centres undefined)	5	1
COc1cc(-c2nc(Cc3ccccc3Cl)no2)cc(OC)c1OC	1	-1
CCOc1ccc(S(=O)(=O)NCc2cccnc2N(C)C)cc1C	9	11
COc1ccccc1CCN1CCC(CN(C)C(=O)C2CCCO2)CC1 (centres undefined)	5	0

Single records, as listed above.
NC(=O)CSCc1cc(Cl)c2c(c1)OCCCO2 is listed as NPYLR7 agonist = 5; NPYLR7 agonist max-min = 2
CCCC(=O)Nc1cc(Cl)ccc1Sc1ccc(C)cc1C is listed as NPYLR7 agonist = 8; NPYLR7 agonist max-min = 8
O=C(CCn1nnc(-c2ccccc2)n1)N1CCCn2cncc2C1 is listed as NPYLR7 agonist = 4; NPYLR7 agonist max-min = 1

Further results follow:
SMILES	NPYLR7 agonist	NPYLR7 agonist max-min
Cc1nnsc1C(=O)N1CCc2c([nH]c3ccccc23)C1C(C)(C)C (centres undefined)	2	-4
COc1cc(C2=NC(=Cc3cc(Br)cs3)C(=O)O2)cc(OC)c1OC	1	-2
CCn1nc(C)c(NC(=O)CN2C[C@H](O)C[C@H]2C(=O)OC)c1C	2	0
O=C(Nc1ccccc1F)N1CCN(Cc2ccc3c(c2)OCO3)CC1	-11	-12
O=C(NCc1csc(-c2cnccn2)n1)c1cccc2c1OCC2	6	4
CCCCc1nc2cc(/C=C/C(=O)NO)ccc2n1CCN(CC)CC	-4	-13
CC1(C(=O)Nc2ccc3c(c2)OCO3)CCN1CC1CCOC1 (centres undefined)	-3	-6
CCc1nc2c(OCCOc3ccc(F)cc3)cccn2c1N(C)C(=O)COc1ccccc1	-4	-6
CCc1cccc2c(C(CC(=O)O)c3ccc4c(c3)OCO4)c[nH]c12 (centres undefined)	8	14
O=C1CC(c2nc3c(s2)CCCC3)c2cc(C(=O)O)c(O)cc2N1 (centres undefined)	-2	-3
COc1ccc(CCNC(=O)CN2CN(c3ccccc3)C3(CCN(S(=O)(=O)c4ccc(Cl)cc4)CC3)C2=O)cc1OC	13	17
Cc1ccc(S(=O)(=O)NC(=O)NN2CC3CCCC3C2)cc1 (centres undefined)	-17&-3&-3	-18&-8&-5
Cc1cc(C)c2oc(=O)cc(-c3oc4ccccc4c3NC(=O)C3CC3)c2c1	0	0
CCOc1nc(-c2cccc(C(F)(F)F)c2)n(-c2cccc(NC(=O)c3ccc([N+](=O)[O-])cc3)c2)n1	0	4
Cc1nccc(-c2cccc(NC(=O)c3cccnc3NC(C)C)c2)n1	-15	-20
CN(CC(O)COCc1ccc2c(c1)OCO2)c1ncc(C(F)(F)F)cc1Cl (centres undefined)	-1	-3
C=CCn1c(SCC(=O)OC)nc2sc3c(c2c1=O)CCC3	0	-2
CCOC(=O)C1CCN(C(c2cccc(OC)c2)C2Sc3ncnn3C2=O)CC1 (centres undefined)	-1	-2
Cc1cc(C)n(-c2nc(-c3ccccc3)cc(=O)n2CC(=O)Nc2ccc3c(c2)OCCO3)n1	0	4
CC(=O)Nc1ccc(C(=O)C(C)N2CCN(c3ncccn3)CC2)cc1 (centres undefined)	9	4
Cc1cc2c(=O)n(Cc3ccco3)c(SCC(=O)Nc3ccc4c(c3)OCCO4)nc2s1	0	0
COc1ccccc1C(=O)N1CCCC(OCc2cccc(F)c2)C1 (centres undefined)	1	12
CSc1ncccc1C(=O)N1CCc2ccc(NC(=O)C3CCCO3)cc2C1 (centres undefined)	4	1
Cc1ccc2c(c1)C(=O)C(=O)N2C(C)C	-3	4
COc1c[nH]c(C(=O)Nc2ccc3c(c2)OCO3)cc1=O	-4	-5

In a second layout: 2 of the compounds above
Structure | NPYLR7 agonist | NPYLR7 agonist max-min
COc1ccccc1C(=O)N1CCCC(OCc2cccc(F)c2)C1 (centres undefined) | 1 | 12
CSc1ncccc1C(=O)N1CCc2ccc(NC(=O)C3CCCO3)cc2C1 (centres undefined) | 4 | 1

(list continues)
SMILES	NPYLR7 agonist	NPYLR7 agonist max-min
O=C(Nc1ccc(Br)cc1)N(Cc1cccc(OS(=O)(=O)c2cccc(C(F)(F)F)c2)c1)Cc1ccco1	5	14
CCc1ncc(C(=O)N2CCC(N(C)Cc3ccccc3)CC2)cn1	-1	-9
CN1CCN(S(=O)(=O)c2ccc(Cl)c(C(F)(F)F)c2)CC1	1	9
COc1ccc(-c2cccc(-n3cncc3C(=O)N(C)C)c2)cc1OC	25	29
CCOc1ncccc1CN1CCCC(C(=O)N2CCN(c3ccc(C(C)=O)cc3)CC2)C1 (centres undefined)	-10	-14
CSc1cc(C(=O)O)ccc1NS(=O)(=O)c1ccc(C)s1	3	1
CN1CCN(n2c3c(c(SCC(=O)Nc4nccs4)nc2=O)CCC3)CC1	-6	-9
COc1ccc(S(=O)(=O)N(CC(=O)N2CCC(C)CC2)Cc2ccco2)cc1	-5	-6
Cn1c(SCC(=O)NC(C)(C)C)nc2ccccc21	11	10
CCc1nc2ccc(C(=O)Nc3cccc(OC)c3)cn2c1N(CC)Cc1cccc(Br)c1	7	5
COc1ccc(-c2nnc(SCc3cc(C)ccc3C)n2-c2ccccc2)cc1	20	25
Cc1ccccc1Cn1c(=O)c2c(nc3n(CCN4CCOCC4)c(C)c(C)n23)n(C)c1=O	-1	18
COc1cccc(C2Nc3ccccc3S(=O)(=O)N2)c1 (centres undefined)	9	4
Cc1cc(SCC(=O)Nc2ccccc2)n2nc(C)c(-c3ccccc3)c2n1	2	-3
CCOC(=O)C1=C(C)N=c2sc(=Cc3ccoc3)c(=O)n2C1c1ccccc1 (centres undefined)	6	2
CS(=O)(=O)N1CCN=C1SCc1ccc([N+](=O)[O-])cc1	7	8
CN(Cc1nc2ccc(F)cc2[nH]1)Cc1c(C(=O)N2CCCCC2)nc2sccn12	8	-1
CCNC(=O)N1CCSC12C(=O)N(Cc1ccccc1C)c1ccccc12 (centres undefined)	-1	5
Cc1ccc(F)cc1NC(=O)NC(C)c1ccco1 (centres undefined)	2	0
CS(=O)(=O)Nc1cc(NC(=O)CCCc2ccccc2)ccc1F	0	-1
CC(=O)c1cccc(-n2cnnc2Cn2cccn2)c1	4	14
CCn1c(=O)c2c(nc3n(-c4cc(C)cc(C)c4)c(C)cn23)n(C)c1=O	-2	24
COc1cc(OC)cc(C(=O)Nc2ccc(O)c(-c3nc4ccccc4o3)c2)c1	-4	-12
c1ccc(CSCCSc2ncn[nH]2)cc1	4	-1
C=CC[C@@H]1C=C(C)C[C@H](C)C[C@H](OC)[C@H]2O[C@@](O)(C(=O)C(=O)N3CCCC[C@H]3C(=O)O[C@H](/C(C)=C/[C@@H]3CC[C@@H](O)[C@H](OC)C3)[C@H](C)[C@@H](O)CC1=O)[C@H](C)C[C@@H]2OC	-11	-17

Pulled by structure from the list above:
SMILES	NPYLR7 agonist	NPYLR7 agonist max-min
CCc1ncc(C(=O)N2CCC(N(C)Cc3ccccc3)CC2)cn1	-1	-9
CCOC(=O)C1=C(C)N=c2sc(=Cc3ccoc3)c(=O)n2C1c1ccccc1 (centres undefined)	6	2

For convenience, part of the list above.
SMILES	NPYLR7 agonist	NPYLR7 agonist max-min
CS(=O)(=O)Nc1cc(NC(=O)CCCc2ccccc2)ccc1F	0	-1
CC(=O)c1cccc(-n2cnnc2Cn2cccn2)c1	4	14
CCn1c(=O)c2c(nc3n(-c4cc(C)cc(C)c4)c(C)cn23)n(C)c1=O	-2	24
COc1cc(OC)cc(C(=O)Nc2ccc(O)c(-c3nc4ccccc4o3)c2)c1	-4	-12
c1ccc(CSCCSc2ncn[nH]2)cc1	4	-1
C=CC[C@@H]1C=C(C)C[C@H](C)C[C@H](OC)[C@H]2O[C@@](O)(C(=O)C(=O)N3CCCC[C@H]3C(=O)O[C@H](/C(C)=C/[C@@H]3CC[C@@H](O)[C@H](OC)C3)[C@H](C)[C@@H](O)CC1=O)[C@H](C)C[C@@H]2OC	-11	-17

Next part
SMILES	NPYLR7 agonist	NPYLR7 agonist max-min
CC1(C(=O)Nc2ccc(Cl)c(Cl)c2)CCN1Cc1cc2ccccc2o1 (centres undefined)	7	3
CCOc1ccccc1C(=O)N1CCC2(CCCNC2)C1 (centres undefined)	0	5
CC(C)N(Cc1c(-c2ccccc2)noc1N(C)C(C)C)C(=O)c1ccc(F)cc1	0	15
CC(SCc1ccccc1)C(=O)Nc1cccnc1N1CCCC1 (centres undefined)	2	-3
CCOc1ccc(C(=O)NCc2sccc2C)cc1	1	0
COc1ccc(-n2ccnc2CN2CCN(CC3CCCCC3)C(CCO)C2)cc1 (centres undefined)	-3	-7
O=C(c1ccccc1)N1CCN(Cc2ccc(-c3cncnc3)cc2)CC1	19	13
CCOC(=O)c1ccc(C#N)c(SC2CCCc3ccccc32)n1 (centres undefined)	-2	-3
O=C(NC1CC1)c1cc(-c2ccco2)n(C2CCS(=O)(=O)C2)n1 (centres undefined)	1	-2
CC(C)(C)OC(=O)CCC(NC(=O)C(C)(C)Oc1ccc(CCNC(=O)c2ccc(Cl)cc2)cc1)C(N)=O (centres undefined)	-11	-17
CC(C(=O)NC(=O)NC1CC1)N1CCN(C(=O)c2ccccc2C(F)(F)F)CC1 (centres undefined)	-5	-5
CCCc1cc(N2CCCCC2)n2nc3nc(C)cc(C)c3c2n1	3	6

These rows are one share of the data (hit frequency here may not be typical).
